Vaccinia mCherry = qHTS for Stage-Specific Inhibitors of Vaccinia Orthopoxvirus: mCherry Reporter Primary qHTS | Vaccinia virus mCherry reporter infection, fluorescence; about a quarter of the inactives have no number | Potency, µM (highest dose often 36.5 µM), for the others: at the top dose activity change, negative = inhibition, actives largely listed as inhibitors | hit rate 0.63% among 310,000 | AID 720579, 2013; active = well fitted inhibition curve with a large enough effect; inconclusive = small, poorly fitted or top-dose-only effect; inactive = no such curve, though single readings can be large or run the other way; tested in A549 cells; note: nearly all actives have a fitted effect of over 35% in size; inactives centre near -10
Vaccinia Venus = qHTS for Stage-Specific Inhibitors of Vaccinia Orthopoxvirus: Venus Reporter Primary qHTS; Potency, µM (doses to about 36.5 µM), for inactives: top-dose activity change, negative = inhibition, most hits filed as inhibitors; Vaccinia virus Venus reporter expression, fluorescence; hit rate 0.46% among 330,000; active means well fitted inhibition curve with a large enough effect; inconclusive means small, poorly fitted or top-dose-only effect; inactive means no such curve, though single readings can be large or run the other way; tested in A549 cells; note: nearly all actives have a fitted effect of over 30% in size; inactives centre near -10
* marks the source's active call; other numbers are inactive results; i = inactive; ? = inconclusive; . = not tested or not shown; [ ] = dose if it differs, or a comment. % is set by controls: 0 for no effect and ±100 for the full control effect; potency is the fitted concentration of half-maximal effect.

Below each compound – Vaccinia Venus	Vaccinia mCherry
CSCc1ccc(C(=O)N2CCC(CCC(=O)N(C)Cc3ccccc3)CC2)o1
  -17.3%	-17.1%
CCN(C[C@H]1N[C@@](Cc2ccccc2)(C(=O)OC)[C@H]2C(=O)N(Cc3ccccc3)C(=O)[C@@H]12)C(=O)COC
  0.3%	i
COc1ccc(S(=O)(=O)N2CCCCCC2)cc1C(=O)N(C)Cc1ccc(C)cc1
  -25.8%	?
O=C(/C=C/c1ccccc1)Nc1nc(-c2cccs2)ns1
  -7.1%	-0.6%
Cc1onc(-c2ccccc2)c1C(=O)N1CCCC(C)(C(=O)NS(=O)(=O)C2CC2)C1 (stereo not drawn)
  28.1%	12.1%
CC(C)N1CCC(N2CCN(Cc3ccc(-c4ccccc4Cl)o3)CC2CCO)CC1 (stereo not drawn)
  -17.8%	-10.5%
O=C(NC(=S)NC1CCCCC1)c1ccc(F)cc1
  2.7%	0.2%
O=c1[nH]cnc2c1ncn2[C@@H]1O[C@H](COS(=O)(=O)O)[C@@H](O)[C@H]1O
  -10.3%	i
O=C1/C(=C/c2ccccc2)CSc2sccc21
  0.2%	.
COc1ccc(C(=O)NCc2nnc(SCC(=O)NO)n2Cc2ccccc2)cc1
  -9.8%	-6.8%
COC(=O)/C=C1\SC(=NC(=O)c2ccc(-c3ccccc3)cc2)NC1=O
  -4.9%	i
CCCn1c2ccccc2c2cnn(CC(=O)NCCCOC)c(=O)c21
  -3.7%	-13.3%
COc1cc(OC)c(C(=O)NNC(=O)c2ccc(NS(=O)(=O)c3cccs3)cc2)cc1OC
  -0.3%	-8.3%
O=C(C[n+]1c(Cl)cc(Cl)c2ccccc21)c1ccccc1
  -8.1%	-15.4%
CCOc1ccc(C(=O)Nc2ccc3nc(SCCOc4ccccc4)sc3c2)cc1
  ?	?
O=[N+]([O-])c1ccccc1OCCCCN1CCCCC1
  -12.6%	-16.7%
COc1ccc(Nc2nnc(-c3ccc(O)cc3)c3ccccc23)cc1C(N)=O
  6.4%	-28.2%
Cc1cc(NC(=O)COc2ccc3oc4ccccc4c3c2)no1
  -5.2%	i
O=C(NC(Cc1ccc(O)cc1)C(=O)O)/C(=C/c1ccccc1)NC(=O)c1ccccc1 (stereo not drawn)
  -15.9%	-5.8%
O=C(Nc1ncnc2c1ncn2C1OC(COC(=O)c2ccccc2)C(F)C1O)c1ccccc1 (stereo not drawn)
  -14.5%	10.1%
O=C(Nc1nncs1)c1cc2c(s1)CCC2
  -14.4%	i
Cn1cnc(S(=O)(=O)N2CCC(C(=O)N3CCN(c4cccc(C(F)(F)F)c4)CC3)CC2)c1
  -5.7%	i
CC(OC(=O)Cn1cc(C(F)(F)F)ccc1=O)C(=O)N(C)c1ccccc1 (stereo not drawn)
  -14.3%	-11.1%
Cc1ccc(NC(=O)CSc2nnc(-c3n[nH]c4ccccc34)n2-c2ccccc2)c(C)c1
  -22.3%	?
CC(=O)c1cccc(-c2ccnc3c2CC(C(=O)NCc2ccncc2)O3)c1 (stereo not drawn)
  -17.1%	-24.1%
Nc1nc2c(c(=O)[nH]1)C(c1cccc3ccccc13)C1=C(N2)c2ccccc2C1=O (stereo not drawn)
  -1.7%	-9.0%
CCC(C(=O)Nc1cc(OC)ccc1OC)n1c(=O)c(C(F)(F)F)nc2ccccc21 (stereo not drawn)
  6.0%	-4.0%
CC(CNC(=O)c1ccccc1[N+](=O)[O-])NC(=O)c1ccccc1[N+](=O)[O-] (stereo not drawn)
  -2.2%	-0.7%
COc1ccc(CNc2nc(Cl)c(C#N)s2)cc1
  -22.4%	i
CCc1ccc(NC(=O)CSc2nc(=O)n(Cc3ccccn3)c3c2CCC3)cc1
  -23.7%	?

Carrying on.
Below each compound – Vaccinia Venus	Vaccinia mCherry
CCOC(=O)N1CCN(S(=O)(=O)CCNC(=O)c2ccccc2)CC1
  5.3%	-5.8%
CC(/C=N/NC(=O)c1cc(-c2ccc3ccccc3c2)n[nH]1)=C\c1ccco1
  -21.5%	-22.6%
Oc1ccccc1CN(Cc1ccco1)CC(O)COCc1ccc(Cl)cc1 (stereo not drawn)
  -28.7%	-29.1%
CCn1cc(C(=O)OCC(=O)Nc2cc(Cl)ccc2C)c(=O)c2ccc(C)nc21
  -11.8%	-6.1%
COc1cccc(CNC(=O)CSc2ncc3c(n2)-c2cc(Cl)ccc2N(C)S3(=O)=O)c1
  -3.1%	-16.9%
O=C(Cc1c(F)cccc1Cl)Nc1ccc(S(=O)(=O)NCC2CCCO2)cc1 (stereo not drawn)
  -13.7%	i
CCOc1ccc(N(CC(=O)N/N=C/c2cc([N+](=O)[O-])ccc2Cl)S(C)(=O)=O)cc1
  ?	.
O=[N+]([O-])/C(=C\Nc1ccccc1)S(=O)(=O)c1ccccc1
  -4.1%	.
Cc1ccc(S(=O)(=O)NNC(=S)Nc2ccccc2)cc1
  -6.4%	-15.3%
O=C(NCC(c1ccco1)N1CCc2ccccc2C1)c1cccc(Br)c1 (stereo not drawn)
  -8.5%	-14.7%
Cc1ccc(NC(=O)CN2C(=O)NC3(CCCc4ccccc43)C2=O)cc1S(=O)(=O)N1CCOCC1 (stereo not drawn)
  -16.2%	-17.1%
COc1ccc(NC(=O)C2C3C=CC4(O3)C2C(=O)N(CCN2CCCCC2C)C4C(=O)NC2CCCC(C)C2C)cc1 (stereo not drawn)
  -13.3%	-10.0%
Nc1ccc2oc(-c3ccccc3Cl)nc2c1
  -13.3%	-3.1%
COc1ccc(-n2c(C)cc(C(=O)COc3ccc(-n4cnnn4)cc3)c2C)cc1
  -3.6%	.
CCc1ccc(CNC(=O)Cn2nc(C)c3nn(-c4ccc(Cl)cc4)c(C)c3c2=O)cc1
  -19.9%	i
O=C1CS/C(=N/N=C/c2ccccc2)N1Cc1ccco1
  -12.0%	-9.0%
CCOc1ccc2nc(N3CCCC(C(=O)Nc4ccc(OC)cc4)C3)sc2c1 (stereo not drawn)
  -29.2%	-24.4%
COc1cccc(CSc2nnc(-c3ccncc3)n2C)c1
  -9.4%	i
CCOc1ccc(OCCC(=O)N(CC)CC(=O)Nc2ccccc2OC)cc1
  -9.7%	-14.2%
O=[N+]([O-])c1ccc(-c2ccc(/C=N/c3c(-c4ccco4)nc4ccccn34)o2)cc1
  -4.4%	-3.1%
COc1ccc(N=Nc2nc3cc(Br)c(Br)cc3n2C)c(OC)c1
  52.9%[activator]	-5.8%
CCN(Cc1ccncc1)Cc1c(O)ccc2ccccc12
  -10.7%	-4.5%
CCc1ccccc1NC(=O)Cn1c(=O)n(Cc2ccco2)c(=O)c2sc3ccccc3c21
  -10.7%	-8.2%
O=C1CN(S(=O)(=O)c2ccc(F)cc2)c2ccccc2N1
  -1.1%	-27.7%
COc1cccc(CN(C(=O)c2oc3cc(C)ccc3c2C)C2CCS(=O)(=O)C2)c1 (stereo not drawn)
  -0.8%[7.34 µM]	-16.0%[7.34 µM]
Clc1ccc(CN(Cc2ccccc2)C(c2cccs2)c2nnnn2C2CCCC2)cc1 (stereo not drawn)
  -14.4%	-11.1%
Cc1ccc(NC(=O)CN(C)C(=O)C2CSC3(C)CCC(=O)N23)cc1 (stereo not drawn)
  -18.0%	i
CO/N=C/NC(=O)NOCc1ncc(C(F)(F)F)cc1Cl
  -17.4%	.
Cc1ccc(-c2cc(C(=O)NCCc3ccccc3)c3ccccc3n2)cc1C
  -7.2%	-13.3%
Clc1ccccc1Cc1noc(CN2CCSCC2)n1
  -3.2%	-2.4%

(further entries)
Below each compound – Vaccinia Venus	Vaccinia mCherry
Cc1ccc(-c2nc3cc(Cl)ccc3o2)cc1NC(=O)c1cc([N+](=O)[O-])ccc1N1CCOCC1
  -6.5%	-8.1%
N#CN=C(N)c1ccccc1
  -2.0%	i
CCC(=O)N1CCc2cc(Br)cc(S(=O)(=O)CCC(=O)N3CCN(c4ccc(OC)cc4)CC3)c21
  -10.0%	1.5%
Cc1cc(C)c(C#N)c(SCC(=O)N2CCN(Cc3ccccc3)CC2)n1
  -15.3%	.
CC(C)n1c(=O)c2ccccc2n1CC(=O)N1CCOCC1
  -2.2%	6.0%
CCC(C)C(NC(=O)c1ccccc1NC(=O)c1ccccc1)C(=O)N1CCOCC1 (stereo not drawn)
  -0.4%	-7.2%
Cc1ccc(C)c(NC(=O)CCS(=O)(=O)c2cccc3nsnc23)c1
  1.5%	3.3%
O=C(NCc1ccccc1)C(c1ccco1)N1CCN(c2ccccc2F)CC1 (stereo not drawn)
  -10.3%	?
O=C(NC1CC1)C1CCN(C2CCN(C(=O)c3ccc(C(F)(F)F)cc3)CC2)CC1
  0.0%[7.34 µM]	i[7.34 µM]
Cc1ccc(CS(=O)Cc2ccc(C(=O)NCCCc3ccccc3)o2)cc1 (stereo not drawn)
  ?	-9.2%
CCC1CCCCN1CCCNC(=O)c1cc2c(Cl)nc3ccccc3c2s1 (stereo not drawn)
  -16.0%	2.0%
Cc1ccc(S(=O)(=O)N2CCN(c3ncnc4scc(-c5ccc(F)cc5)c34)CC2)cc1
  -6.3%	?
N#CCOc1ccccc1/C=N/n1nnnc1N
  5.7%	i
Cc1ccc(Cc2c(-c3ccc(C#N)cc3)nc3ccc(Br)cn23)cc1
  -16.4%	-14.3%
O=C(Nc1sc2c(c1C(=O)O)CCC2)c1ccc(F)cc1
  -29.7%	?
CCSc1nnc(C)c(=O)n1COC(=O)c1ccc(S(=O)(=O)N2CCCC2)cc1
  -6.4%	-8.6%
O=C(COC(=O)c1c(F)cccc1Cl)NC1CCCCC1
  -5.9%	-7.9%
NC(=O)c1c(NC(=O)c2ccncc2)sc2c1CCCC2
  ?	-26.5%
CNC(=O)[C@@]1(C)C=C[C@@H](Cc2ccccc2)N1C(=O)OC
  -7.0%	i
O=C(CN1CCN(Cc2ccccc2F)C1=O)NCCc1ccc(Cl)cc1
  -15.6%	-22.5%
CCCCc1nnc(NC(=O)COC)s1
  -12.4%	i
Cc1nc(CNC(=O)CC2C(=O)NCCN2Cc2cccc(Oc3ccccc3)c2)cs1 (stereo not drawn)
  -9.2%	i
CC1(C)CC(=O)C2=C(C1)OC(N)=C(C#N)C2c1cccc(OC(=O)c2ccco2)c1 (stereo not drawn)
  -1.6%	-15.9%
CCOC(=O)/C(=C\c1ccc([N+](=O)[O-])o1)NC(=O)c1ccccc1
  -8.4%	-19.8%
Cc1cc(C)n(-c2nc3ccccc3nc2N2CCN(c3cccc(C)c3C)CC2)n1
  -0.8%	-19.8%
COc1ccc(C(=O)N(C)Cc2ccccn2)cc1OC1CCN(C(C)C)CC1
  -13.6%	i
O=C(NCC1CC1)Nc1ccccc1F
  1.8%	i
COc1ccc(-c2ccc3c(N)c(C(=O)Nc4ccc(C(F)(F)F)cc4)sc3n2)cc1OC
  ?	-3.6%
CC1(C)CCC(=NNC(N)=S)CC1
  ?	11.2µM*
CN(C)c1ccc(/C=N/N(Cc2ccccc2)c2ccccc2)cc1
  -13.2%	-14.0%

Random excerpt: six compounds from above, in no set order.
Below each compound – Vaccinia Venus	Vaccinia mCherry
Cc1ccc(Cc2c(-c3ccc(C#N)cc3)nc3ccc(Br)cn23)cc1
  -16.4%	-14.3%
CCOC(=O)/C(=C\c1ccc([N+](=O)[O-])o1)NC(=O)c1ccccc1
  -8.4%	-19.8%
Cc1ccc(S(=O)(=O)N2CCN(c3ncnc4scc(-c5ccc(F)cc5)c34)CC2)cc1
  -6.3%	?
COc1ccc(C(=O)N(C)Cc2ccccn2)cc1OC1CCN(C(C)C)CC1
  -13.6%	i
CCSc1nnc(C)c(=O)n1COC(=O)c1ccc(S(=O)(=O)N2CCCC2)cc1
  -6.4%	-8.6%
Cc1ccc(C)c(NC(=O)CCS(=O)(=O)c2cccc3nsnc23)c1
  1.5%	3.3%

Other compounds
Below each compound – Vaccinia Venus	Vaccinia mCherry
CCOC(=O)c1cc(C(=O)OCC)c(=O)[nH]c1N1CCCC1
  -11.4%	i
COC(=O)C[C@H]1CC[C@@H](NC(=O)Nc2c(C)noc2C)[C@@H](CO)O1
  28.7%	-1.5%
O=C(O)COc1ccc(/C=N/NC(=O)c2cn(-c3ccccc3)nc2-c2ccccc2)cc1
  -7.1%	-27.8%
COc1cccc(-c2cnc(-c3ccncc3)nc2C2CCN(C(=O)Cc3csc(C)n3)CC2)c1
  -8.7%	-12.9%
CC(=O)Nc1ccc(NC(=O)CSc2ncnc3c2cnn3Cc2ccccc2)cc1
  10.9%	i
Cc1ccc(C)c(OCC(=O)Nc2ccc(S(=O)(=O)Nc3ccccn3)cc2)c1C
  -17.3%	i
O=C(N/C(=C\c1cccc([N+](=O)[O-])c1)C(=O)N1CCOCC1)c1cccc(Br)c1
  -7.1%	i
CCCOc1ccc(C(O)C(CN2CCOCC2)c2ccccc2)cc1 (stereo not drawn)
  -18.7%	.
CCCCn1nnnc1C(c1cc2ccccc2o1)N1CCCC1 (stereo not drawn)
  -9.5%	-9.9%
Cc1noc(C)c1-c1ccc(C(=O)NCc2ccccc2)c2occc12
  ?	i
C=CCN1C(=O)C(Cc2ccc(C)cc2)S/C1=N/N=C/c1ccco1 (stereo not drawn)
  18.5%	-0.2%

Profiles, looked up by structure.
CCOC(=O)c1cc(C(=O)OCC)c(=O)[nH]c1N1CCCC1 as listed: Vaccinia Venus = -11.4%; Vaccinia mCherry = i
Cc1noc(C)c1-c1ccc(C(=O)NCc2ccccc2)c2occc12 as listed: Vaccinia Venus = ?; Vaccinia mCherry = i

From PubChem
